From PubChem
CtBP-E1A inh: qHTS Assay for Inhibitors of the CtBP/E1A Interaction. AID 651724, 2012. activity change, % (test concentration not listed). CtBP / adenovirus E1A interaction (AlphaScreen). 0.49% of 340,000 active. AlphaScreen GST-E1A/His-CtBP binding, 1536-well; hits give low values; control for the full effect not named in the record; in the data active means activity change below about -65%; inconclusive means about -30% to -65%; inactive means above about -30%; further: on the % scale 0 is the no-effect control and ±100 the full control effect; compound concentration not given in the record
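GST-E1A and His-tagged CtBP (125 nM each as 5X stock) were preincubated with pin-transferred compound for 2 h at 37 °C in the dark, then glutathione donor and nickel acceptor beads were added for 1 h before AlphaScreen reading.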
Six1-Eya2 inh: qHTS Assay for Inhibitors of the Six1/Eya2 Interaction | Homeobox protein SIX1 (Homo sapiens) + Protein phosphatase EYA2 (Homo sapiens), … | AlphaScreen GST-Six1/His-Eya2 binding, biochemical; hits give low values; control for the full effect not named in the record | activity change, % (concentration not given with the values) | 0.56% of 360,000 active | AID 651725, 2012; in the data active = activity change below about -65%; inconclusive = about -30% to -65%; inactive = above about -30%; further: on the % scale 0 is the no-effect control and ±100 the full control effect
Target sequence (O00167 whole entry, looked up): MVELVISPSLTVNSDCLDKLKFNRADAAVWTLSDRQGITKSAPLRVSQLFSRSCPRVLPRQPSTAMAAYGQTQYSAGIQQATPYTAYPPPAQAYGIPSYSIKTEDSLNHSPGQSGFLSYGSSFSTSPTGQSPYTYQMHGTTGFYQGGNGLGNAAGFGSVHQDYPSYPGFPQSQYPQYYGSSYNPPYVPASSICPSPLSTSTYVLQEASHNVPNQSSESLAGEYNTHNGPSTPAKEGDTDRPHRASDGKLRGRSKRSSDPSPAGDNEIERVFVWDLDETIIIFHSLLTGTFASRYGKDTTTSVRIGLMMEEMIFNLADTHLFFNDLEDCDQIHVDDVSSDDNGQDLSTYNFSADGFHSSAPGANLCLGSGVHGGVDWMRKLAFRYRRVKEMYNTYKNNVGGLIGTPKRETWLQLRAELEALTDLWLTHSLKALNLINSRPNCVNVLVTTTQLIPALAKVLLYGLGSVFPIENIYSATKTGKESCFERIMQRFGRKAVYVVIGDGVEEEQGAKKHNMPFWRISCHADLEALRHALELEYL
Target sequence (Q15475 whole entry, looked up): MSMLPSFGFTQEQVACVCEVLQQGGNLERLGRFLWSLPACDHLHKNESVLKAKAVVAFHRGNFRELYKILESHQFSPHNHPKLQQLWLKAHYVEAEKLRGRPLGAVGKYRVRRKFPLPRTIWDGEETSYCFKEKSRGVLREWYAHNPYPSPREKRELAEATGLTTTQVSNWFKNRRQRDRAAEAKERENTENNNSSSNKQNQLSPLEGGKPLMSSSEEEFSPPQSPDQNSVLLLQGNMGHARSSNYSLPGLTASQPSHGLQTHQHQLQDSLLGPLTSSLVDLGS
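Compounds are tested against tagged Six1 and Eya2 proteins bridged by glutathione donor and nickel acceptor beads; after a one-hour incubation at 37 °C without light, AlphaScreen emission is recorded.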
TRPML1 ag: qHTS for Agonists of the Human Mucolipin Transient Receptor Potential 1 (TRPML1); 0.12% of 410,000 active; TRPML1-expressing cells, Ca2+ dye fluorescence, FDSS; host cell line not named in the record; reference of the full effect not given here; AID 624414, 2012; Mucolipin-1 (Homo sapiens), Q9GZU1; activation, % (no concentration beside the values); in the data active = activation above about 50%; inconclusive = about 30% to 50%; inactive = below about 30%; further: 0% is about no effect; the text of the record puts the active cut at 80%
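Calcium fluorescence on an FDSS kinetic reader gave the read-out. Tet-induced TRPML1-DL cells were plated overnight, dye-loaded (Ca8 with quencher, 45-90 min, room temperature, dark), then read 110 s after compound addition, and again 110 s after 4uM final 54-4 (EC80).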
PINK1 expr mod: A Quantitative High throughput Screen to Identify Chemical Modulators of PINK1 Expression. Potency, µM (doses to about 76.6 µM), inactives show at the top dose activation (PINK1 increase), usual class: activators. 0.2% of 410,000 active. AID 624263, 2012. PINK1 immunofluorescence, high-content cytometry, 24 h; active = well fitted activation curve with a large enough effect; inconclusive = small, poorly fitted or top-dose-only effect; inactive = flat fitted curve, though single readings scatter; cell line not stated here;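 further: potency means the concentration at half of the fitted maximal effect; % of control where 0% means no effect; nearly all actives have a fitted effect of over 65% in size; a mitochondrial uncoupler was the plate control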
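PINK1 protein, normally rapidly degraded, was detected by immunofluorescence after 24 hour compound treatment of a stable cell line. Titration data (5 concentrations) came from laser-scanning cytometry, with CCCP-treated wells as controls.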
D2 ag: Beta-Arrestin HTS for Positive Allosteric Modulators of the Human D2 Dopamine Receptor: Agonists; D(2) dopamine receptor (Homo sapiens), P14416; AID 624465, 2012; activation, % (no concentration beside the values); 0.084% of 360,000 active; DiscoveRx PathHunter D2 beta-arrestin, luminescence, 90 min; 100% = 57 uM dopamine signal; in the data active = activation above about 40%; inconclusive = about 15% to 40%; inactive = below about 15%; further: compound concentration not given in the record; the text of the record calls up to 30% inactive
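DiscoveRx PathHunter D2 beta-arrestin cells (2,100/well) attached overnight, then compound-stimulated 90 min at 37 C in HBSS/10 mM HEPES/0.1% Tween-20 buffer; beta-galactosidase complementation read by luminescence after 1 h at ambient temperature. Dopamine 57 uM final (EC100) as control.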
D2 potentiator: Beta-Arrestin HTS for Positive Allosteric Modulators of the Human D2 Dopamine Receptor: Potentiators. potentiation, % (concentration not given with the values). AID 624464, 2012. D(2) dopamine receptor (Homo sapiens), P14416. 0.23% of 360,000 active. DiscoveRx D2 beta-arrestin cells, luminescence, 90 min; 100% = 57 uM dopamine signal; active = potentiation of 50% or more; inconclusive = 30% to 50%; inactive = 30% or less;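 further: compound concentration not given in the record; tested on top of an EC20 dose of dopamine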
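D2 cells co-treated with compound plus 50 nM dopamine (EC20) for 90 min at 37 deg C to detect potentiation. Beta-arrestin recruitment was read as enzyme-fragment luminescence after 1 h at ambient temperature. Full response was set by 57 uM dopamine.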
* marks the source's active call; other numbers are inactive results; ? = inconclusive; . = not tested or not shown; & = joins results of further samples; [ ] = remark or other dose.

Each structure is followed by: CtBP-E1A inh	Six1-Eya2 inh	TRPML1 ag	PINK1 expr mod	D2 ag	D2 potentiator
C#CCOCCOCCOCCNc1nc(N2CCN(C(=O)[C@H]([C@@H](C)O)n3cc(CCCCN)nn3)CC2)nc(N2CCN(C(=O)[C@H](CCCCN)n3cc(CCCC)nn3)CC2)n1
    2	2	-0.2	8.9%	-1.6	-39
Cc1cc(NC(=O)CN2C(=O)NC(C)(CCc3ccccc3)C2=O)no1 (configuration not stated)
    0	-1	0.0	0.2%	-0.9	-3
CN1CCN(C(=O)C(Cc2ccccc2)NS(=O)(=O)c2ccc3c(c2)CCC(=O)N3)CC1 (configuration not stated)
    -22	4	-0.4	1.5%	-4.5	-4
Cc1cc(N2C(=O)C3CCC(c4ccccc4)CC3C2=O)no1 (configuration not stated)
    1	-5	-0.7	0.5%	-2.9	-5
CCCc1cc(C(N)=O)c(NC(=O)c2cc(C)on2)s1
    -10	-10	1.7	-1.8%[38.3 µM]	-1.1	1
CC(C)(C)c1ccc(OCCNCc2ccccc2)cc1
    -1	-6	-1.2	-2.3%	-0.8	-30
C=CCN1CC(O)=C(c2nc3ccccc3[nH]2)C1=N
    -6	-10	-0.5	1.1%	-0.3	-7
O=S(=O)(NCCc1csc(-c2ccc(C(F)(F)F)cc2)n1)c1ccc2c(c1)OCCO2
    9	3	0.3	0.8%	4.7	-5
CN1C(=O)CC(C(=O)O)SC1=Nc1cc(Cl)c(O)c(Cl)c1 (configuration not stated)
    -1	6	-0.4	.	-2.1	-20
COc1ccc(CNC(=O)COC(=O)c2cc(S(=O)(=O)N3CCOCC3)ccc2O)cc1OC
    0	-4	-0.1	-4.9%	1.5	-16
CC1C=CC(C)C(C(=O)O)C1C(=O)O (configuration not stated)
    -15	?	1.2	-1.1%	1.2	-4
Cc1nc2ccccc2c(=O)n1NC(=O)c1ccc(Cl)c(Cl)c1
    .	-7	1.8	2.7%	-1.4	-11
Nc1n[nH]c(N)c1N=Nc1ccc(Cl)cc1Cl
    -11	-20	0.3	5.5%	-3.8	-8
Cc1ccccc1Nc1nnc(C)c(=O)[nH]1
    0	-1	-0.6	0.1%	-0.5	-4
O=C(N/N=C/c1ccco1)C(O)C(O)C(=O)N/N=C/c1ccco1 (configuration not stated)
    -10	35	0.6	0.5%	-0.4	-3
COc1ccc(/C=C/C(=O)NCC(c2ccc(F)cc2)N2CCOCC2)cc1OC (configuration not stated)
    4	12	.	-0.2%	15	-31
O=C(Nc1ccc(F)c(S(=O)(=O)N2CCOCC2)c1)C1CCCCC1
    13	-4	6.6	0.1%	0.7	-7
Cc1ccc(-n2c(Cn3nc(C(F)(F)F)cc3C)n[nH]c2=S)cc1
    0	1	0.5	-4.2%[38.3 µM]	-1.2	-8
COc1ccc(C(=O)CSc2nnc(-c3cccnc3)n2Cc2ccco2)cc1
    1	-4	-0.3	-0.5%	-1.9	3
COc1ccc(CCNC(=O)CCC(=O)N2CCOc3ccc(Cl)cc32)cc1OC
    2	1	0.1	0.7%	-4.6	-13
CC1(C(=O)NS(=O)(=O)Cc2cccc(Cl)c2)CCN1C(=O)C1CCCCC1 (configuration not stated)
    10	-1	-0.5	0.3%	-6.5	-2
COC(=O)[C@]1(Cc2ccccc2)N[C@H](CN(C)C(=O)Nc2ccc(Cl)cc2)[C@@H]2C(=O)N(Cc3ccccc3)C(=O)[C@@H]21
    21	16	0.6	9.1%	0.5	-4
CCCC(=O)Nc1ccc(NC(=S)NC(=O)c2cccs2)cc1
    -3	?	1.4	3.1%	-6.9	-4
CCN1CCN(C(c2cc3cc4c(cc3[nH]c2=O)OCO4)c2nnnn2C(C)(C)CC)CC1 (configuration not stated)
    3	4	1.1	-1.6%[38.3 µM]	-3.6	-13
NC(=O)c1cc(S(=O)(=O)N2CC=C(c3ccccc3)CC2)cs1
    2	-1	0.4	-0.6%	-1.4	-6
O=C1c2ccccc2-c2c1cccc2C(=O)N1CCCCCC1
    -7	-14	1.4	2.8%	-1.0	-15
CC1=Nc2cc(C(=O)NCCCN3CCOCC3)ccc2Sc2c(C)ccc(C)c21
    3	-1	-0.9	3.9%	-1.3	-11
COc1ccc(CCN=C(N)NS(=O)(=O)c2ccc(C)c(C)c2)cc1OC
    -7	2	1.5	0.2%	0.4	-7
Cc1ccc(-c2csc(NC(=O)CSc3nc4ccccc4c(=O)n3CCCN(C)C)n2)cc1
    -8	-14	0.1	-2.3%	-0.8	-23
Cc1cccc(CCNC(=O)c2cc(S(=O)(=O)N3CCCC3)cn2C)c1
    -1	1	-0.2	0.1%	-4.7	-14

Pulled by structure from the entries so far:
Each structure is followed by: CtBP-E1A inh	Six1-Eya2 inh	TRPML1 ag	PINK1 expr mod	D2 ag	D2 potentiator
COc1ccc(CNC(=O)COC(=O)c2cc(S(=O)(=O)N3CCOCC3)ccc2O)cc1OC
    0	-4	-0.1	-4.9%	1.5	-16
COc1ccc(CCNC(=O)CCC(=O)N2CCOc3ccc(Cl)cc32)cc1OC
    2	1	0.1	0.7%	-4.6	-13

(cont.)
Each structure is followed by: CtBP-E1A inh	Six1-Eya2 inh	TRPML1 ag	PINK1 expr mod	D2 ag	D2 potentiator
CCOc1ccccc1CNC(=O)Cn1ccc2cc(S(=O)(=O)N3CCCCCC3)ccc21
    2	0	-0.3	-1.8%	0.2	-9
O=C(Nc1ccc2c(c1)OCCO2)c1ccc(Br)o1
    -3	0	0.0	-0.8%	-1.9	-21
C[C@]12CCC(O)CC1CCC1C2CC[C@]2(C)C(c3cc(C(F)(F)F)n[nH]3)CCC12 (some centres not stated)
    .	0	-0.3	-0.6%	-3.2	5
COc1cc(OC)cc(C(=O)Nn2cc(C(=O)Nc3ccccc3F)c3ccccc3c2=O)c1
    ?	-23	1.2	4.0%	-3.0	-23
Cc1ccc(NC(=S)NNC(=O)Nc2ccccc2)cc1
    .	-3	-0.8	0.1%	-5.4	-20
Nc1cc(C(=O)OCC(=O)Nc2ccc(N3CCOCC3)cc2)ccc1Cl
    -8	-11	0.8	0.3%	-1.9	-2
O=C(COC(=O)C1C2CC3OC(=O)C1C3C2)Nc1ccc(F)cc1 (configuration not stated)
    4	-1	1.2	0.1%	-0.8	-1
Cc1ccc(CC(=O)N(Cc2ccccc2)c2ccccn2)cc1
    .	9	0.8	3.5%	-2.1	-7
CC1(C(=O)Nc2ccc3[nH]ncc3c2)CCN1C(=O)C/C=C/c1ccccc1 (configuration not stated)
    1	1	-0.6	-0.1%	13	-7
COc1ccc(C(C)C)cc1-c1ccc2nncn2c1
    6	1	-0.6	0.8%	-5.7	-7
CCN(CC)CCN(C(=O)c1ccc2ccccc2c1)c1nc2cc3c(cc2s1)OCO3
    -21	-29	0.8	25%	-6.0	-42
COc1cc(NC(=O)OCc2ccccc2)c2ncccc2c1
    26	6	3.0	2.4%	1.3	-3
CCO[C@H]1OC(C(=O)N2CCN(Cc3ccccc3)CC2)=C[C@@H](c2ccc(C(F)(F)F)cc2)[C@@H]1CCCO
    -15	-2	0.8	13%	1.1	-33
CC1CCCN(C(=O)Cn2c3ccccc3c3nc4n(c(=O)c32)CCS4)C1 (configuration not stated)
    0	-14	0.0	2.2%	1.8	-8
O=C1CCN(Cc2ccccc2)C=C1c1ccc(C(F)(F)F)cc1
    -1	-4	0.4	3.4%	1.3	.
CCOC(=O)c1nn(-c2ccccc2C)c2nc(-c3ccc(C)cc3)c(C#N)c(=O)n12
    5	8	2.1	-1.9%	-5.2	-11
Cc1ccc(C2=NN(CC(=O)NCCC(C)C)C(=O)CC2)cc1
    3	3	0.7&0.5	0.6%&-0.3%	0.5	-6
Cc1ccc(/C=C/S(=O)(=O)NCC(=O)OCC(=O)NCc2ccccc2)cc1
    -12	-1	1.7	8.0%	-4.8	-14
COc1cc(/C=N/NC(N)=O)c(Br)cc1OCC(=O)Nc1ccccc1C
    -1	-3	1.0	8.3%	-2.0	-12
COc1ccc(-c2[nH]n(-c3ccc([N+](=O)[O-])cc3)c(=O)c2C=NCc2ccncc2)cc1
    -12	-3	-0.6	2.8%	-12	-19
CCOC(=O)Cc1nn(CC)c(=O)c2ccccc12
    4	-1	-0.6	1.2%	-4.9	-2
CCCC(=O)Nc1ccc2c(c1)nc1n2CCN(C2CCCCC2)C1
    -3	-1	-0.1	0.3%	-3.6	-5
CCCNC(=O)C(Cc1cccc(Cl)c1)NC(=O)c1ccc(C#N)cc1 (configuration not stated)
    6	7	-0.6	0.0%	-8.9	-2
O=C1NC[C@H](CCCCN2C[C@H](Cc3ccccc3)N(CCc3ccccc3)C(=O)C2=O)N(CCc2ccc(O)cc2)C1=O
    5	9	-0.2	-0.6%	.	.
C/C(=N/NC(=O)CSc1nc2ccccc2n1C)c1ccncc1
    -5	-7	0.7	-1.0%	-4.1	-3
COC(=O)c1sc2ccccc2c1NC(=O)c1coc2ccccc2c1=O
    -2	4	-0.6	4.1%	-2.6	-1
O=C(NCCOc1ccccc1F)C1CCC(=O)N(CCc2cccc(F)c2)C1 (configuration not stated)
    0	2	-0.5	-0.8%	-4.3	-7
CCC(COC)NC(=O)CCc1nnc(Cc2cccc(C(F)(F)F)c2)o1 (configuration not stated)
    6	3	-0.4	-1.2%	-1.1	-4
CCc1cc(CNC(=O)CC2C(=O)NCCN2Cc2c(F)cccc2Cl)on1 (configuration not stated)
    1	11	0.4	1.4%	-4.0	4
CCCCn1c(N)c(N(CC(C)C)C(=O)Cn2c(=O)oc3ccccc32)c(=O)[nH]c1=O
    -3	-9	-0.1	2.3%	-5.2	-4
CN(Cc1cc(Cl)cc(Cl)c1)CC(C(=O)c1ccccc1)c1ccccc1 (configuration not stated)
    7	21	1.8	0.7%	-4.4	-22
Cc1cc(CNC(=O)[C@H]2C[C@@H]2[C@H](NP(=O)(c2ccccc2)c2ccccc2)c2ccccc2)nn1C
    6	4	-0.7	-0.7%	-4.3	-2

Structures shown so far that contain a furan ring, fused or not, in the order listed:
Each structure is followed by: CtBP-E1A inh	Six1-Eya2 inh	TRPML1 ag	PINK1 expr mod	D2 ag	D2 potentiator
O=C(N/N=C/c1ccco1)C(O)C(O)C(=O)N/N=C/c1ccco1 (configuration not stated)
    -10	35	0.6	0.5%	-0.4	-3
COc1ccc(C(=O)CSc2nnc(-c3cccnc3)n2Cc2ccco2)cc1
    1	-4	-0.3	-0.5%	-1.9	3
O=C(Nc1ccc2c(c1)OCCO2)c1ccc(Br)o1
    -3	0	0.0	-0.8%	-1.9	-21

Random draw from the library; about 1.3% have a hit in one of these screens.
